# TRPV1 PAM: HTS Assay for Compounds that Act as Potentiators of the Vanilloid Receptor 1 | Transient receptor potential cation channel subfamily V member 1 (Homo sapiens), Q8NER1 | TRPV1-expressing cells, Fluo-8 calcium influx, capsaicin EC20 potentiation; host cell line not named in the record; control for the full effect not named in the record | potentiation, % at 8.33 µM | 320,000 tested, 0.02% active | AID 540277, 2011; active means potentiation above 80%; inconclusive means 30% to 80%; inactive means below 30%; further: 0% is about no effect
#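 Fluo-8 calcium influx in TRPV1-expressing cells, kinetic read (ex 480/em 520 nm). Compound added and read 3 min for agonist activity, followed by capsaicin at EC20 final and 2 min further read for enhancement.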
# TRPML1 ag: qHTS for Agonists of the Human Mucolipin Transient Receptor Potential 1 (TRPML1); activation, % (concentration not given with the values); 410,000 tested, 0.12% active; TRPML1-expressing cells, Ca2+ dye fluorescence, FDSS; host cell line not named in the record; reference of the full effect not given here; in the data active = activation above about 50%; inconclusive = about 30% to 50%; inactive = below about 30%; further: 0% is about no effect; the text of the record puts the active cut at 80%
# Target sequence (Q9GZU1 whole entry, looked up): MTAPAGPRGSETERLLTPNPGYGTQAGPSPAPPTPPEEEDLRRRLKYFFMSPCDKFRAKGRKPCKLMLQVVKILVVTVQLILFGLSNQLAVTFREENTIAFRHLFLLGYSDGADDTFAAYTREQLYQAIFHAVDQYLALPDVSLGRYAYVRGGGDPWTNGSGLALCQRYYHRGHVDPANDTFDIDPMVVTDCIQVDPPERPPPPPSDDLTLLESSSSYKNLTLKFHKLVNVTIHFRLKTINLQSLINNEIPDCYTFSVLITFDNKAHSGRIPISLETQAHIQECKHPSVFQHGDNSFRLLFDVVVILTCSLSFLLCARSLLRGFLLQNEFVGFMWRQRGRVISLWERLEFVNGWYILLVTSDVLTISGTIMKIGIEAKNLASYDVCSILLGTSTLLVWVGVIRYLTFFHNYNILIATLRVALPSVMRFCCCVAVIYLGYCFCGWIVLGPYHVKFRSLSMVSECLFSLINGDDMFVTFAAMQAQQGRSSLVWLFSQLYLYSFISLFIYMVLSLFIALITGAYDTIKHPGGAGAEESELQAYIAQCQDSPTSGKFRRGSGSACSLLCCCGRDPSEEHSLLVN
#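 Agonist activity was taken from a 110 s kinetic Ca2+ dye read on the FDSS after pinning compounds onto TRPML1-DL cells. The cells were seeded at 1,500/well with Tet inducer, incubated about 16 h, then dye-loaded at room temperature.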
# D2 potentiator: Beta-Arrestin HTS for Positive Allosteric Modulators of the Human D2 Dopamine Receptor: Potentiators; D(2) dopamine receptor (Homo sapiens), P14416; DiscoveRx D2 beta-arrestin cells, luminescence, 90 min; 100% = 57 uM dopamine signal; potentiation, % (concentration not given with the values); 360,000 tested, 0.23% active; AID 624464, 2012; active = potentiation of 50% or more; inconclusive = 30% to 50%; inactive = 30% or less;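 further: compound concentration not given in the record; tested on top of an EC20 dose of dopamine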
# Target sequence (P14416 whole entry, looked up): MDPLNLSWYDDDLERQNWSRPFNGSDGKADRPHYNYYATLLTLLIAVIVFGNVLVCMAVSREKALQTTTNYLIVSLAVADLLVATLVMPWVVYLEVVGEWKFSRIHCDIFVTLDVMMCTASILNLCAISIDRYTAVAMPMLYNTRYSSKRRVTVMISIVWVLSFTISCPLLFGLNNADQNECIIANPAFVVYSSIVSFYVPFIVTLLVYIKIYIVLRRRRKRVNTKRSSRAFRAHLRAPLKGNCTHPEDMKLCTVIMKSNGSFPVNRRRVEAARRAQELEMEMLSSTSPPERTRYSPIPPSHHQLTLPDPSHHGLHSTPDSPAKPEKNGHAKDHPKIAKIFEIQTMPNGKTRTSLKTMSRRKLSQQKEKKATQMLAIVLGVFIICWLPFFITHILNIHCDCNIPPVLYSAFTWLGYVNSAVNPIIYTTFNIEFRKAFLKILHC
#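 D2 cells co-treated with compound plus 50 nM dopamine (EC20) for 90 min at 37 deg C to detect potentiation. Beta-arrestin recruitment was read as enzyme-fragment luminescence after 1 h at ambient temperature. Full response was set by 57 uM dopamine.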
# CtBP-E1A inh: qHTS Assay for Inhibitors of the CtBP/E1A Interaction; CtBP / adenovirus E1A interaction (AlphaScreen); AlphaScreen GST-E1A/His-CtBP binding, 1536-well; active compounds read low; control for the full effect not named in the record; activity change, % (concentration not given with the values); 340,000 tested, 0.49% active; AID 651724, 2012; in the data active means activity change below about -65%; inconclusive means about -30% to -65%; inactive means above about -30%; further: on the % scale 0 is the no-effect control and ±100 the full control effect
#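 In 5 uL wells, 23 nL compound meets equimolar GST-E1A and His-CtBP (5X stock 125 nM each) for 2 h, 37 °C. Beads (5X, 50 ug/mL) then 1 h, 37 °C, dark.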
# TRPML1 inh: qHTS for Inhibitors of the Human Mucolipin Transient Receptor Potential 1 (TRPML1) | Mucolipin-1 (Homo sapiens), Q9GZU1 | TRPML1-inducible cells, Ca2+ dye fluorescence, FDSS; active compounds read low; inhibition of EC80 agonist-evoked calcium signal | activity change, negative = inhibition, % (no concentration beside the values) | 390,000 tested, 0.02% active; in the data active means activity change below about -50%; inconclusive means about -30% to -50%; inactive means above about -30%;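 further: stimulus is agonist 54-4 at its EC80 concentration; on the % scale 0 is the no-effect control and ±100 the full control effect; compound concentration not given in the record; the text of the record puts the active cut at -80%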
#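 Calcium fluorescence in TRPML1-DL cells induced overnight with Tet: a 110 s read after compound pin addition, then a 110 s antagonist read after challenge with 54-4 at 4 uM final (EC80).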
# Six1-Eya2 inh: qHTS Assay for Inhibitors of the Six1/Eya2 Interaction. AID 651725, 2012. 360,000 tested, 0.56% active. activity change, % (no concentration beside the values). Homeobox protein SIX1 (Homo sapiens) + Protein phosphatase EYA2 (Homo sapiens), …. AlphaScreen GST-Six1/His-Eya2 binding, biochemical; active compounds read low; control for the full effect not named in the record; in the data active = activity change below about -65%; inconclusive = about -30% to -65%; inactive = above about -30%; further: on the % scale 0 is the no-effect control and ±100 the full control effect
#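 GST-Six1 + His-Eya2 (5X stock: 250/500 nM); Tris pH 8.0, 300 mM NaCl, 0.05% BSA, 0.02% Tween 20; GSH donor/Ni acceptor beads; 1 h 37 °C dark; AlphaScreen readout.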
# Starred values were filed as active, the others as inactive; ? = inconclusive; nt = no result given.
SMILES,TRPV1 PAM,TRPML1 ag,D2 potentiator,CtBP-E1A inh,TRPML1 inh,Six1-Eya2 inh
O=[N+]([O-])c1cc([N+](=O)[O-])c(Oc2ccc(Br)cc2Br)cc1NN1CCCCC1,6.9,-0.3,-3.1,-2.3,18.7,0.9
Cc1ccccc1/C=C1\Oc2ccccc2C1=O,nt,1.8,nt,-4.4,1.7,-10.4
Cc1cc(NC(=O)c2ocnc2C)no1,1.9,1.2,-6.6,5.2,22.5,0.7
N#Cc1ccc(Cn2c(-c3ccc(F)cc3)noc2=O)cc1,4.3,-0.4,2.4,4.8,-11.7,6.3
COc1ccc(NC(=O)c2cc(C)n(Cc3cccs3)c2C)cc1,nt,1.7,-4.4,?,16.4,-18.4
O=C(NNC(=O)C1CCN(Cc2cccc(F)c2)CC1)c1cccs1,3.4,0.0,-7.0,0.0,23.8,-0.9
COc1cc2nc(N3CCN(C(=O)OCc4ccccc4)[C@H](C(=O)NC(C)(C)C)C3)nc(N)c2cc1OC,-3.7,-0.3,-14.8,-27.5,-2.1,-1.6
COC(=O)C(CC(=O)c1ccc(C)cc1)n1cccn1 (configuration not stated),7.7,nt,11.6,nt,nt,-0.1
O=C(O)C1CSC2(c3ccc4c(c3)OCCO4)CCC(=O)N12 (configuration not stated),-6.9,-0.4,-3.0,9.6,-7.1,2.3
COc1cc(SC)ccc1C(=O)Nc1ccc2ncccc2c1,14.0,-0.5,-6.9,-1.8,-7.4,-16.3
COc1ccccc1CNS(=O)(=O)c1cc(C(=O)N(C)Cc2cccnc2)c(Cl)cc1Cl,nt,-0.6,-7.8,-10.6,-0.4,10.9
COc1cc(NC(=O)c2ccccc2F)ccc1NC(=O)c1ccccc1Cl,7.3,-0.1,-1.0,0.0,-9.4,-0.6
Cc1cc(NC(=O)c2cc(Cl)ccc2Cl)no1,-3.5,-0.2,3.4,3.1,3.5,0.3
COc1ccc(CCNS(=O)(=O)c2cc3c4c(c2)C(C)C(=O)N4CCC3)cc1OC (configuration not stated),17.4,-0.7,-4.4,2.1,0.6,1.1
CS(=O)(=O)N(CC(=O)NCCSCc1ccccc1)c1ccc2c(c1)OCO2,10.1,0.3,-9.4,0.0,34.3,2.6
Cc1oc(/N=C/c2cccc3ccccc23)c(C#N)c1C,?,2.7,28.1,6.0,9.8,-14.8
Cc1ccc(/C=C2\SC(=S)N(NS(=O)(=O)c3ccc(C)cc3)C2=O)cc1,26.8,nt,26.6,nt,nt,5.5
Cc1cc(C)n(-c2ccc(C(=O)NCC(=O)Nc3cc(Cl)ccc3Cl)cc2)n1,nt,-1.6,-8.7,nt,-0.5,-3.0
O=C(CSc1ccccc1F)Nc1ccc2c(c1)OCO2,nt,0.3,-24.0,5.4,4.7,-1.5
O=C(NNC1=Nc2cccc3cccc1c23)c1ccc(Br)cc1,7.7,2.7,-18.4,3.9,9.8,-3.4

# Full records as entered above:
# Cc1ccccc1/C=C1\Oc2ccccc2C1=O reads TRPV1 PAM = nt; TRPML1 ag = 1.8; D2 potentiator = nt; CtBP-E1A inh = -4.4; TRPML1 inh = 1.7; Six1-Eya2 inh = -10.4
# Cc1cc(C)n(-c2ccc(C(=O)NCC(=O)Nc3cc(Cl)ccc3Cl)cc2)n1 reads TRPV1 PAM = nt; TRPML1 ag = -1.6; D2 potentiator = -8.7; CtBP-E1A inh = nt; TRPML1 inh = -0.5; Six1-Eya2 inh = -3.0
# Cc1cc(NC(=O)c2ocnc2C)no1 reads TRPV1 PAM = 1.9; TRPML1 ag = 1.2; D2 potentiator = -6.6; CtBP-E1A inh = 5.2; TRPML1 inh = 22.5; Six1-Eya2 inh = 0.7

# Continued:
SMILES,TRPV1 PAM,TRPML1 ag,D2 potentiator,CtBP-E1A inh,TRPML1 inh,Six1-Eya2 inh
CCOC(=O)/C(C(C)=O)=C1/OC(=O)c2ccccc21,6.4,0.3,-22.8,-0.9,-3.5,5.1
Cc1cc(C)c(NC(=S)NC(=O)c2ccc(-c3ccccc3)cc2)c(C)c1,-5.5,0.0,-4.5,-5.9,17.4,-16.7
Cc1ccc(C2OCC3(CO2)COC(c2ccc(C)cc2)OC3)cc1 (configuration not stated),9.1,-0.5,-3.8,0.3,-10.2,9.5
CCN(CC)c1ncnc2c1ncn2[C@H]1CN(Cc2cc(OC)c(OC)c(OC)c2)C[C@@H](CO)O1,nt,-0.5,-3.1,-6.5,1.3,-9.4
O=C(NCc1ccccn1)c1cc2ccccc2oc1=O,9.1,-0.9,-5.9,-2.4,2.2,3.4
COc1cc(OC)cc(C(=O)Nc2ccc([N+](=O)[O-])cn2)c1,-8.1,0.9,-20.9,2.9,7.7,2.8
NS(=O)(=O)c1ccc(CCNC(=O)CCc2nc3ccccc3s2)cc1,21.2,-0.5,-4.7,-2.2,8.0,8.4
O=C(Nc1cccc2c1CCCC2)c1cc([N+](=O)[O-])cc([N+](=O)[O-])c1,13.1,1.1,61.7*,2.0,17.7,-5.7
Cc1ccc2c(cnn2C(=O)CCCC(=O)NCc2cccc(F)c2)c1,-6.3,0.0,-10.6,-12.2,-2.8,6.6
COC(=O)CCc1nc2ccccc2[nH]c1=O,18.4,-0.2,-10.7,2.7,-4.2,-1.1
Cc1ccc(C)c(S(=O)(=O)N2CCCOC2CNC(=O)C(=O)NCCc2ccccc2)c1 (configuration not stated),7.3,-0.1,-11.2,2.8,-0.7,0.0
CCOC(=O)NCCc1c(C)nc2c(c(C)nn2C(C)(C)C)c1C,-11.8,1.3,-0.6,-4.8,18.3,0.9
COc1cccc(OC)c1OCCNC(C)(C)C,-1.7,0.2,-15.4,2.6,9.5,2.1
CC/C(=N\NC(=O)C1CCCC1)c1ccc(Br)cc1,-3.8,3.3,1.6,3.5,11.8,0.6
COCCCNC(=O)NC(=O)c1ccccc1,-9.6,-0.2,-3.5,6.9,-7.9,0.7
O=C(O)/C(=C\c1cccs1)c1ccccc1,0.6,1.1,5.1,-14.9,-1.3,-8.0
CCOc1ccc2c(c1)sc1nc(C(=O)OC)cc(=O)n12,nt,-0.6,-0.2,0.2,6.8,-1.4
O=C1c2ccc(-c3ccc(F)cc3OCc3ccccc3)cc2S(=O)(=O)c2cccc(C(=O)N3CCN(c4ncc(Br)cn4)CC3)c21,nt,-0.5,-41.2,-17.5,-11.6,5.0
CCOC(=O)N1CCN(C(=O)CN(Cc2ccc(Cl)cc2)S(C)(=O)=O)CC1,2.5,1.1,-30.0,17.9,-1.0,8.6
CCOC(=O)C1CCCN(c2c(NCCCN(C)Cc3ccccc3)c(=O)c2=O)C1 (configuration not stated),4.9,0.1,-15.3,9.9,-10.8,0.1
O=C(NCc1ccc(F)cc1)C(Cc1ccccc1)n1cccc1 (configuration not stated),-8.2,1.1,-8.1,-10.6,-6.3,-2.7
CCS(=O)(=O)N1CCc2cc(OC)c(OC)cc2C1,-7.5,0.1,-3.3,-2.0,-11.9,3.1
CC(C)Cc1cc(C(=O)Nc2cc(Cl)ccc2Cl)no1,-3.9,-0.3,-4.1,24.0,13.1,2.8
Clc1ccc2oc(-c3ccccc3)cc(=NCCCN3CCOCC3)c2c1,-3.8,-0.6,-43.2,0.0,-2.8,-1.8
O=C(CN1CCOc2ccccc21)NC1CCN(Cc2ccccc2)CC1,nt,-0.1,-10.8,-1.7,-11.8,-11.5
c1ccc(CN2CCN(c3nc4ccccc4n4cnnc34)CC2)cc1,nt,0.5,-5.1,-8.2,39.2,-11.1
CCC(CC)C(=O)OCC(=O)Nc1cccc([N+](=O)[O-])c1,-9.9,-1.0,-4.1,-8.6,-13.9,-0.8
Cc1sc(N)c(C#N)c1C,-4.8,0.0,-5.4,12.1,2.0,6.0
COC(=O)c1cc(CN2C(=O)c3ccccc3C2=O)c(O)c([N+](=O)[O-])c1,4.8,2.0,-3.1,24.2,-14.1,-2.4
COc1ccc(OC)c(-n2c(C)cc(C=O)c2C)c1,-0.1,-0.6,-10.3,6.1,-6.4,-17.2
Cc1ccc(OCC(=O)NCCNC(=O)c2ccccn2)cc1,-7.7,-0.6,-6.4,3.2,-3.7,42.9
CCC1=NN(C(=O)c2ccc(Cl)cc2)C(O)(c2ccccc2)C1 (configuration not stated),-8.2,nt,-7.5,nt,nt,-0.6
COc1ccc(-c2nnc(OCc3ccccc3)c3ccccc23)cc1,-15.9,1.7,-8.4,8.1,-5.5,-1.3
O=C(NCCCN1CCOCC1)c1cc(-c2ccc(F)cc2)no1,6.2,0.1,-17.8,-12.4,-6.6,-5.3
OCC1OC(n2cnc3c(NCc4ccccc4O)ncnc32)C(O)C1O (configuration not stated),nt,0.1,5.8,13.1,14.3,0.6
O=C(NC1CCN(Cc2ccc(Cl)cc2Cl)CC1)c1ccccc1,7.0,0.9,-41.0,1.1,-2.6,2.5
Clc1ccc(OCc2cc(-c3ccccc3)no2)cc1Cl,-0.6,-0.3,-0.1,-3.8,-11.7,53.1
COCCN(C(=O)CSc1nnc(-c2cccc(C)c2)n1C)c1c(N)n(Cc2ccccc2)c(=O)[nH]c1=O,-3.8,0.3,2.5,27.8,-5.4,26.2
COc1ccc(CCN2CC(C(=O)NCc3cccc4[nH]ccc34)CCC2=O)cc1 (configuration not stated),3.2,-0.9,-1.5,-16.0,1.5,-15.8
Cn1c(=O)c2c(nc(NCCO)n2CCc2ccccc2)n(C)c1=O,8.4,0.1,-4.7,2.0,-3.4,3.8
CC1(C)N=C(c2ccccc2)C(=O)N1,9.2,-0.5,-8.9,2.3,1.4,9.9
CN1CCN(c2ccncc2S(=O)(=O)N2CCCCC2)CC1,-16.3,0.1,-6.9,6.9,15.5,0.0
Cc1[nH]nc2c1C1(CCOCC1)C(C#N)=C(N)O2,0.9,0.1,-0.2,1.8,-5.5,2.4
CCCn1nnc2ccccc2c1=O,-13.1,-0.7,-0.8,0.2,21.2,-1.9
COc1cc(C(=S)N2CCOCC2)ccc1OC(=O)c1ccc(Br)cc1,-9.2,0.2,24.3,nt,-0.1,-2.9
CCCC(CNC(=O)COC(=O)C1=NNC(=O)CC1)c1ccc(Cl)cc1Cl (configuration not stated),nt,-0.6,-1.0,5.5,7.6,3.2
COC(=O)CC1COc2ccccc2N1C(=O)c1cccc(Cl)c1 (configuration not stated),10.4,0.7,-1.6,-2.6,26.7,6.7
C[n+]1cccc(C(=O)NCC2CCCO2)c1 (configuration not stated),-4.2,-0.6,-18.6,-10.6,19.6,2.3
CCOC(=O)C1=C(CCc2ccccc2)NC(=O)NC1c1ccc(Br)cc1 (configuration not stated),15.4,-0.2,-24.7,2.9,20.0,-0.2
Cc1nc(NC(=O)/C=C/c2ccc(F)cc2)sc1C(=O)N(C)C,-6.2,-0.7,-0.3,-2.7,-16.2,-9.5

# Screens deposited in PubChem by National Center for Advancing Translational Sciences (NCATS).
